# PrP UTR inh = inhibition of PrP 5' UTR reporter expression; cell-based PrP 5' UTR mRNA reporter, plate reader; inhibition, % (test concentration not listed); actives 0.35% (n = 340,000); AID 488862;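 active means every replicate at 50% or more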;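 further: 0 = median of the neutral control wells; tested in H4 reporter cells; numbers are from one replicate; inactives centre near -14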
# Autofluor counter = counter-screen for toxin protease inhibitors: compound fluorescence; AID 624483; actives 3.1% (n = 360,000); compound autofluorescence counterscreen, microsphere flow cytometry; hits give high values; fluorescence intensity (test concentration not listed);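 active means at least 3 SD above the mean of all compounds, about 16000 in these data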;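 further: 100 nL of 1 mM stock went into each well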
# * hit, by the source's call. The list is partial; rates above refer to the full screens.
# The first 3 entries, to show the layout:
mol | PrP UTR inh | Autofluor counter
O=C1CCC[C@@H]2[C@@H](Cc3ccccc3)[C@H](N3CCN(c4ccccc4)CC3)C[C@@H]3CCN1[C@@H]32 | -34 | 3644
CC1=C(C)CC2(C(=O)NC(=S)NC2=O)C(C)C1 (stereo unspecified) | -17 | 3606
CCOC(=O)/C=C/[C@H]1CCc2cccc(C)c2O1 | -18 | 4339

# This part in full, previewed entries included:
mol | PrP UTR inh | Autofluor counter
O=C1CCC[C@@H]2[C@@H](Cc3ccccc3)[C@H](N3CCN(c4ccccc4)CC3)C[C@@H]3CCN1[C@@H]32 | -34 | 3644
CC1=C(C)CC2(C(=O)NC(=S)NC2=O)C(C)C1 (stereo unspecified) | -17 | 3606
CCOC(=O)/C=C/[C@H]1CCc2cccc(C)c2O1 | -18 | 4339
CC/C(=C(/c1ccccc1)c1ccc(OCC[N+](C)(C)C)cc1)c1ccccc1 | -17 | 3395
O=C(Cn1cc(COc2c(Br)cc(F)cc2Br)nn1)c1ccc(O)cc1 | -20 | 3382
O=C(/C=C/c1ccccc1)Nc1cccc(C(=O)NCCCc2ccccc2)c1 | -35 | 2850
O=C1C=C(c2ccc(Oc3ccccc3)cc2)C[C@@H](c2ccc(Cl)cc2)C1 | -33 | 3728
Cc1nn(-c2ccccc2)c(Cl)c1C(=O)NNC(=O)c1ccncc1 | -13 | 3886
CCC1(c2ccccc2)C(=O)NC(=S)NC1=O | -11 | 3672
O=C(c1ccc(F)cc1)c1cccc(C(=O)c2ccc(F)cc2)n1 | 3 | 4009
Cc1noc(C)c1NC(=O)Nc1cccc2c1O[C@H](CN(C)S(C)(=O)=O)[C@@H](C)CN([C@H](C)CO)C2=O | -17 | 3471
COc1cc2c(cc1NC(=S)NC(=O)/C=C/c1ccc(OC)c(OC)c1)oc1ccccc12 | 3 | 1989
CC(C)(C)OC(=O)[C@H](Cc1ccccc1)NC(=O)c1nc[nH]c1C(=O)N[C@@H](CCCCN)C(=O)OC(C)(C)C | -11 | 3391
C[C@H](CO)N1C[C@H](C)[C@@H](CN(C)C(=O)Nc2ccc(F)cc2)Oc2ccc(NS(C)(=O)=O)cc2C1=O | -19 | 3797
Cc1ccccc1NC(=O)N(O)C1(C#N)CCCCC1 | -21 | 3790
O=C(CN(C(=O)c1ccccc1)C(=O)c1ccccc1)OCc1ccccc1 | -17 | 3599
O=C(Nc1c(Br)cc2c(c1Br)Cc1ccccc1-2)C(F)(F)F | -21 | 3734
CC(=O)N(C)c1cc([N+](=O)[O-])ccc1OCc1ccccc1 | -9 | 2930
CCN(c1ccc2c(c1)OCO2)S(=O)(=O)c1cc2c(cc1Br)CCN2C(=O)C1CC1 | -22 | 3567
CC(C)C[C@H]1CNC(=O)C(=O)N1CC1CCN(CCc2ccc(-c3ccccc3)cc2)CC1 | 1 | 3349
Cc1c(C(=O)N/N=C/c2ccncc2)nnn1-c1nonc1N | -21 | 5245
CC(=O)C[C@@H](O)CC(=O)[C@@H]1OC(=O)CCCCCCc2ccccc21 | -11 | 3889
COC(=O)C1=C(c2ccc(OC(F)(F)F)cc2)C[C@@H]2CC[C@H]1N2C(=O)NC1CCCCC1 | -15 | 2859
C[C@H](CO)N1C[C@H](C)[C@@H](CN(C)Cc2ccc(Cl)c(Cl)c2)Oc2ccc(NC(=O)Cn3cnnn3)cc2C1=O | -12 | 3304
N#Cc1ccc(C(=O)N2CCC3CC2c2cc(-c4ccc(F)cc4)ccc23)cc1 (stereo unspecified) | -21 | 3665
CC(C)NC(=O)N(C)C[C@H]1Oc2ccc(NC(=O)C3CC3)cc2C(=O)N([C@H](C)CO)C[C@@H]1C | -6 | 2991
O=C(O)C12C3CCC(O3)C1(C(=O)O)C1CCC2O1 (stereo unspecified) | -2 | 3665
C[C@H](CO)N1C[C@H](C)[C@@H](CN(C)CC2CCCCC2)Oc2c(NS(=O)(=O)c3cn(C)cn3)cccc2C1=O | -6 | 2886
CCCCN1CC(COCc2ccccc2)Oc2cccc(Oc3ccc(C(C)C)cc3)c2S1(=O)=O (stereo unspecified) | -22 | 3259
CCOc1ccc(CCN2C(=O)C(=O)N([C@@H](CC(C)C)CN3CCC[C@@H]3CN3C(=O)C(=O)NC[C@@H]3Cc3ccccc3)C[C@@H]2Cc2ccc(O)cc2)cc1 | -12 | 3844

# 4 entries from above, with each value named:
Cc1ccccc1NC(=O)N(O)C1(C#N)CCCCC1
- PrP UTR inh = -21
- Autofluor counter = 3790
O=C(CN(C(=O)c1ccccc1)C(=O)c1ccccc1)OCc1ccccc1
- PrP UTR inh = -17
- Autofluor counter = 3599
O=C(Nc1c(Br)cc2c(c1Br)Cc1ccccc1-2)C(F)(F)F
- PrP UTR inh = -21
- Autofluor counter = 3734
CC(=O)N(C)c1cc([N+](=O)[O-])ccc1OCc1ccccc1
- PrP UTR inh = -9
- Autofluor counter = 2930

# (further entries)
mol | PrP UTR inh | Autofluor counter
COC(=O)C1=C(c2cccc(C#N)c2)C[C@@H]2CC[C@H]1N2C(=O)N1CCC(C)CC1 | -4 | 3850
c1ccc([C@H]2CN3C(=N2)Sc2ccccc23)cc1 | -52 | 2732
CCN1C[C@@H]2[C@@H]3C(=O)N(Cc4ccccc4)C(=O)[C@@H]3[C@](CC)(C1=O)N2C(=O)c1ccc(F)cc1 | -28 | 4069
CCCN(CC(=O)Nc1ccccc1OC)C(=O)c1ccc(S(=O)(=O)Nc2ccccc2OC)cc1 | 11 | 3872
Cc1ccccc1S(=O)(=O)N1[C@@H](c2ccccc2)C(C(=O)O)=CC[C@H]1c1ccc(Cl)cc1 | -13 | 4123
N#Cc1ccc(Nc2nc(-c3ccc(O)cc3O)cs2)cc1C(F)(F)F | -5 | 3886
CCN(C(=O)COC(=O)CSc1ccc(C)cc1C)c1c(N)n(Cc2ccccc2)c(=O)[nH]c1=O | -28 | 3661
c1ccc(C[C@H]2CN=C(Nc3ccccc3)N2CC2CCCCCC2)cc1 | -14 | 3048
COC(=O)[C@H](CC(C)C)N(Cc1ccccc1)S(=O)(=O)N(Cc1ccccc1)[C@@H](CC(C)C)C(=O)OC | 1 | 3906
O=C(NCCCCc1ccccc1)c1cccc(NC(=O)C2CCC2)c1 | -13 | 2933
CCCCN1CC(=O)N2[C@H]3c4ccc(OC)cc4OC[C@@H]3[C@H](c3ccccc3)[C@]2(C)C1=O | -28 | 3657
CCOC(=O)[C@H]1[C@H]2COc3ccc(Br)cc3[C@@H]2N2C(=O)CN(Cc3ccc(OC)cc3)C(=O)[C@@]12C | -9 | 4065
COC1CCC(OC2CC(C3(C)CCC4(CC(O)C(C)C(C(C)/C=C(\C)C(=O)C(C)CC(C)C(=O)O)O4)O3)OC3(OC(C4OC(O)(CO)C(C)CC4C)CC3C)C2C)OC1C (stereo unspecified) | 31 | 3754
CCC(C)C(N)C1=NC(C(=O)N[C@@H](CC(C)C)C(=O)N[C@H](CCC(=O)O)C(=O)N[C@H](C(=O)N[C@H]2CCCCNC(=O)[C@H](CC(N)=O)NC(=O)[C@@H](CC(=O)O)NC(=O)[C@H](Cc3cnc[nH]3)NC(=O)[C@@H](Cc3ccccc3)NC(=O)[C@H]([C@@H](C)CC)NC(=O)[C@@H](CCCN)NC2=O)[C@@H](C)CC)CS1 (stereo partly specified) | -15 | 5790
C=Cc1ccc(C2=CC(=O)C[C@H](c3ccc(OC)cc3)C2)cc1 | -5 | 3052
CC(=NNc1nc2ccccc2o1)c1cc2ccccc2cn1 | 17 | 3176
O=c1nc2n(CCO)c3ccccc3cc-2c(=O)[nH]1 | -15 | 4161
CC(C)NC(=O)N(C)C[C@H]1Oc2ccc(NS(=O)(=O)c3ccc(F)cc3)cc2C(=O)N([C@H](C)CO)C[C@@H]1C | -26 | 4025
C#CCOCCOCCOCCNc1nc(N2CCN(C(=O)CCCCCCCCCCNC(=O)[C@@H](CCC(=O)O)n3cc(CCCCCN)nn3)CC2)nc(N2CCN(C(=O)CCCCCCCCCCNC(=O)[C@H]([C@@H](C)CC)n3cc(CCCCCN)nn3)CC2)n1 | 5 | 3802
C#CCOCCOCCOCCNc1nc(N2CCN(C(=O)CCCCCCCCCCNC(=O)[C@H](CCCCN)n3cc(C[C@@H](C)CC)nn3)CC2)nc(N2CCN(C(=O)CCCCCCCCCCNC(=O)[C@@H]([C@H](C)O)n3cc(C)nn3)CC2)n1 | -8 | 3752
COC(=O)C1=C(c2cccc(OCc3ccccc3)c2)C[C@@H]2CC[C@H]1N2C(=O)NCc1ccccc1C(F)(F)F | -3 | 2940
CCOc1cc(C(=O)N/N=C/c2cn(-c3ccccc3)nc2-c2cc3ccccc3o2)cc(OCC)c1OCC | -72 | 4193
CCOC(=O)[C@H]1[C@H]2COc3ccc(Cl)cc3[C@@H]2N2C(=O)CN(Cc3ccco3)C(=O)[C@@]12C | -3 | 3000
COc1cccc(-c2ccc3c(c2)C2CC3CCN2C(C)=O)c1 (stereo unspecified) | -16 | 3588
CCN1C(=O)[C@H]2[C@@H](c3ccc(-c4ccc5c(c4)OCO5)cc3)N[C@@](Cc3ccccc3)(C(=O)OC)[C@H]2C1=O | -5 | 2977
O=CNC1(c2ccccc2)CCCCC1 | 10 | 3102
O=C(C[C@@H]1C/C=C\C[C@@H](Cc2ccc(F)cc2)C(=O)OC[C@@H]2CCCN2C1=O)N[C@H](CO)Cc1ccccc1 | -5 | 4041
COc1cc(C(=O)OCC(=O)Nc2ccc(S(=O)(=O)NC3=NCCCCC3)cc2)cc(OC)c1OC | 8 | 3824
O=C(Nc1ccn(CCCNCc2ccccc2)c(=O)n1)OCc1ccccc1 | -8 | 3945
Cc1noc(C)c1NC(=O)Nc1cccc2c1O[C@H](CN(C)S(=O)(=O)c1c(C)noc1C)[C@@H](C)CN([C@H](C)CO)C2=O | -4 | 4148
C=CCn1c(SCC(=O)Nc2cc(Cl)ccc2C(=O)O)nc2sc(C)c(C)c2c1=O | -3 | 3922
Nc1nc(-c2ccccc2)ns1 | -25 | 3780
COC(=O)C1=C(c2cccc(OCc3ccccc3)c2)C[C@@H]2CC[C@H]1N2C(=O)NCc1ccc(OC)cc1 | -28 | 4402
CCCCCCCC/C=C\CCCCCCCC(=O)NCCc1ccc(O)c(O)c1 | -3 | 5774
CCOc1cc(/C=N\NC(=O)Cc2ccccc2)ccc1OCC(=O)Nc1ccc(C)c(C)c1 | -9 | 3477
O=C1ON(Cc2ccccc2)C(c2ccccc2)N1c1ccccc1 (stereo unspecified) | -15 | 4214
[O-]/[N+](=C\c1ccccc1)c1ccc(Br)cc1 | -53 | 4318
COc1cc2c(cc1OC)CN(C1CCC(C(C)(C)C)CC1)CC2 (stereo unspecified) | -11 | 3418
CCOC(=O)[C@H]1[C@H]2COc3ccc(OC)cc3[C@H]2N2C(=O)CNC(=O)[C@@]12C | -13 | 3896
O=C(C[C@H]1C/C=C\C[C@H](Cc2ccc(F)cc2)C(=O)O[C@@H](c2ccccc2)CNC1=O)N[C@H](CO)Cc1ccccc1 | -30 | 2964
COc1ccc(F)cc1C1=CC(=O)C[C@H](c2ccc3c(c2)OCO3)C1 | -18 | 4236
CC1(C(=O)O)CC12c1ccccc1-c1ccccc12 (stereo unspecified) | 62* | 3453
Cc1noc(C)c1NC(=O)N(C)C[C@H]1Oc2c(NS(=O)(=O)c3cccs3)cccc2C(=O)N([C@H](C)CO)C[C@@H]1C | -12 | 4038
O=c1ccn([C@@H]2O[C@H](CNS(=O)(=O)C3CC3)[C@@H](O)[C@H]2O)c(=O)[nH]1 | 10 | 3886
C=CCC[C@@H](Cc1ccc(F)cc1)C(=O)OC[C@@H](NC(=O)[C@@H](CC=C)CC(=O)N(CCO)Cc1ccccc1)c1ccccc1 | -16 | 3489
COc1ccc(S(=O)(=O)N2Cc3cnnn3-c3ccccc3C2C#N)cc1 (stereo unspecified) | -15 | 3760
Cc1cccc(C2=NN(c3ccccc3)[C@@H](C(=O)N3CCOC3=O)[C@@H]2c2ccc([N+](=O)[O-])cc2)c1 | -21 | 3677
Cc1cc(C(C)(C)C)c(OC(=O)[C@@H]2OC(c3ccccc3)=C[C@H]2c2ccccc2)c(C(C)(C)C)c1 | -14 | 4321
NCC1CCN(c2nc3ccccc3c3c2CCCC3)CC1 | 26 | 3131
COc1ccc(NC(=S)N/N=C/c2cccn2Cc2ccc(F)cc2Cl)cc1 | -9 | 4072
COc1cccc([C@@H]2CC=C(C(=O)O)[C@H](c3ccc(Cl)cc3)N2S(=O)(=O)c2ccc(C)cc2)c1 | -11 | 3670
CC(C)CC(=O)N1CC=CC[C@@H](c2ccc(Cl)cc2)N(Cc2ccc(Cl)cc2)C(=O)[C@@H]1Cc1ccccc1 | -19 | 3483
O=C(Cc1ccccc1)c1ccccn1 | -13 | 10134
CC(C)C[C@@H](CNCC(=O)[C@H](C)NC(=O)c1[nH]cnc1C(=O)N[C@@H](C)CN)NC(=O)c1nc[nH]c1C(=O)N[C@@H](C)C(=O)O | -1 | 3726
C=CC[C@@H](CC(=O)NCCO)C(=O)N[C@H](C)COC(=O)[C@@H](CC=C)Cc1ccc(F)cc1 | -13 | 3810
COc1ccc(C(=O)NCC(C)(C)N2CCOCC2)cc1S(=O)(=O)NCc1ccc(Cl)cc1 | -15 | 3802
CC(C)NC(=O)N(C)C[C@H]1Oc2c(NC(=O)Cc3ccccc3)cccc2C(=O)N([C@H](C)CO)C[C@@H]1C | -6 | 2859
O=C(Nc1ccn(CCCNCc2ccc3c(c2)OCO3)c(=O)n1)OCc1ccccc1 | -23 | 4199
CCCCCCCCOc1ccc(C(=O)O)cc1 | 10 | 4213
C[C@H]1CN([C@@H](C)CO)C(=O)c2cccc(NC(=O)C3CC3)c2O[C@H]1CN(C)Cc1ccc(C(F)(F)F)cc1 | -17 | 4123

# Screening data: PubChem BioAssay, several laboratories
